B2AR ag – activates human beta-2 adrenergic receptor causing internalization. P07550. Am2.2-beta2AR cells, FAP receptor internalization, flow cytometry; reference of the scale not given here. response, % (test concentration not listed). 340,000 tested, 0.43% active. AID 504454;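 active means response above a set limit, near 3 SD of response in nonfluorescent compounds, cut at about 42% in these data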;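 further: stock transfer was 100 nL into about 11 µL; a reference agonist was the positive control; negative values mostly stem from fluorescent compounds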
Target sequence (P07550 whole entry, looked up): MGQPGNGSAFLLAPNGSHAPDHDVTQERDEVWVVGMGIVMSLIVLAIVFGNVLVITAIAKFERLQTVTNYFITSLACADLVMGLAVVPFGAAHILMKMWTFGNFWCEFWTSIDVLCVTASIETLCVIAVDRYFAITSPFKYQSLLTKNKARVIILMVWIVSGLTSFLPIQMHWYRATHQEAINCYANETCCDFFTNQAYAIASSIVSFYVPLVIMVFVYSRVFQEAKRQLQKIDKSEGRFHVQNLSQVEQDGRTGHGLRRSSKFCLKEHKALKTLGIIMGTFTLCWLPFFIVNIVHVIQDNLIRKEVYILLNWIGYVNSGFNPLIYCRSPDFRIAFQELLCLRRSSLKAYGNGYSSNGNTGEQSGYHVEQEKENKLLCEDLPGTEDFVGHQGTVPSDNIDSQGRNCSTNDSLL
T cruzi inh – blocks replication of Trypanosoma cruzi; T. cruzi beta-gal in NIH3T3, luminescence, 90 h; inhibition, % (concentration not given with the values); 300,000 tested, 1.4% active; AID 1885;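 active means mean inhibition across valid replicates above about 55%, limit read from the data; inconclusive means mean below that limit but half or more replicates reach it; inactive means mean below it, under half of replicates reach it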;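 further: signal also drops with host cell toxicity which is not excluded here; 0% = plate median of DMSO wells and 100% = zero luminescence signal; higher percent means less beta-gal luminescence so fewer parasites; stock transfer was 50 nL into about 50 µL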
RanGTP-Impb inh – inhibitors of RanGTP-importin-beta interaction, primary screen, biochemical, FRET, CFP-Ran, YFP-importin-beta, homogeneous | cell-free CFP-Ran/YFP-importin-beta FRET ratio | inhibition, % (concentration not given with the values) | 300,000 tested, 1.1% active | AID 2216;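 active means most replicates above 15%; inconclusive means exactly half above 15%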;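 further: 0% = DMSO wells and 100% = Ran loaded with GDP instead of GTP; wells of about 40 µL received 100 nL stock; the first replicate is given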
UCH37 DUB inh – blocks the human deubiquitinase UCH37; 330,000 tested, 0.33% active; Q9Y5K5; purified proteasome/UCH37, Ub-AMC cleavage fluorescence; inhibition, % (no concentration beside the values);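 active means mean of two replicates above 20%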;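 further: 0% = compound-free wells with enzyme and 100% = wells lacking proteasome; stock transfer was 100 nL into about 20 µL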
Target sequence (Q9Y5K5 whole entry, looked up): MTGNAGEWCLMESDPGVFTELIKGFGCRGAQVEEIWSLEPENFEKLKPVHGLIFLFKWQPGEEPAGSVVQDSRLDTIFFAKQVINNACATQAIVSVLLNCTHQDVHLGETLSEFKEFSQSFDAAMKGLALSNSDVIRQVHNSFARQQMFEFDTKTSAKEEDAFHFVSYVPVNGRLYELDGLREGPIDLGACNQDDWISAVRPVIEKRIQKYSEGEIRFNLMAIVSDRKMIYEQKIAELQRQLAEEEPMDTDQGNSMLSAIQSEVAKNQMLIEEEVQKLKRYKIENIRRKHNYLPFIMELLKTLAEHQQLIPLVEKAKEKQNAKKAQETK
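Material: human UCH37 enzyme supplied as purified proteasome complex. Measure: % inhibition of Ub-AMC cleavage fluorescence. Medium: pH 7.4 Tris-HCl (50 mM) with ovalbumin, ATP-MgCl2, DTT. Times: 30 min preincubation with enzyme, 25 min cleavage at room temperature. Detection: AMC fluorescence intensity at 355/460 nm.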
LANA-H2A inh – blocks KSHV LANA binding to histone H2A/H2B. Q9QR71. cell-free LANA-H2A/H2B peptide, fluorescence polarization. inhibition, % (concentration not given with the values). 320,000 tested, 0.6% active. AID 2629; in the data active means inhibition mostly above about 10%, no sharp cut-off; inactive means mostly below about 6.7%;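 further: stock transfer was 7.5 nL into about 10 µL; 0% = median of vehicle wells and 100% = median of positive control wells; one replicate is shown; the record names a cut of 25% in any replicate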
Beta cell apopt – beta cell apoptosis inhibition; AID 435005; protection from apoptosis, % (concentration not given with the values); INS-1E cytokine-induced death, ATP luminescence, 48 h; percent of positive-control rescue, neutral wells zero; 300,000 tested, 0.8% active;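 active means all replicates at 75% or more, or half of them and the mean; inconclusive means half reach 75% but not the mean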;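 further: 0% = cytokine-treated negative control wells and 100% = positive control rescue; higher means more ATP so stronger rescue from cytokine killing; wells of about 40 µL received 100 nL stock; the first replicate is given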
Calb FLC – affects C. albicans growth with fluconazole | C. albicans CaCi-2 (fluconazole-resistant clinical isolate) + fluconazole, Alamar Blue growth, 48 h | growth inhibition, % (concentration not given with the values) | 300,000 tested, 0.57% active | AID 1979;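 active means most replicates above 75%; inconclusive means exactly half above 75%; inactive means most below 75%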;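 further: all wells also contain fluconazole at 8 µg/ml as a sub-toxic cotreatment; 0% = median of DMSO wells and 100% = median of geldanamycin control wells; wells of about 8 µL received 7.5 nL stock; the first replicate is given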
Bfl-1 A1 inh – inhibitors of the anti-apoptotic protein A1, read as caspase activation | MEF A1-2A-BIM cells, Caspase-Glo 3/7 luminescence, 3 h; percent of clofoctol response, vehicle zero | caspase activation, % (test concentration not listed) | 330,000 tested, 0.066% active | AID 2462;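 active means over half of replicate activation scores above 10%, or exactly half above 10 with the replicate mean above 10; inconclusive means replicate mean below 10 yet half the replicates above 10; inactive means over half of replicates below 10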;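 further: wells of about 30 µL received 50 nL stock; many hits fall short of the cut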
* = called active by the depositor; ? = inconclusive; . = not tested or not shown; & = joins results of further samples.

SMILES	B2AR ag	T cruzi inh	RanGTP-Impb inh	UCH37 DUB inh	LANA-H2A inh	Beta cell apopt	Calb FLC	Bfl-1 A1 inh
COC(=O)C1=NN[C@H](C(=O)OC)[C@H]1c1ccccc1	-2	-2	-3.9	6.0	-10	-3	-1	0.3
COc1cccc(C(=O)OC2CCN(C)CC2)c1	4	70*	-1.3	2.2	3.7	-6	-3	0.0
Nc1nc(-c2cc3ccccc3o2)cs1	-1	-9	?	3.0	2.8	0	1	-3.3
CCCC(=O)NC(=S)Nc1ccccc1OC	3	9	5.5	3.9	-0.4	-5	21	-0.6
CCCNS(=O)(=O)c1ccc(N2CCCC2=O)c([N+](=O)[O-])c1	-3	-26	5.0	3.6	-1.9	-6	-3	0.4
CN(C)S(=O)(=O)c1ccc(NC(=O)COC(=O)CC2CC3CCC2C3)cc1 (stereo unspecified)	0	-21	4.8	-0.6	2.6	-30	16	-0.4
COc1ccc(C)cc1NC(=O)Nc1ccc2c(c1)CCC2	6	30	3.4	3.9	6.1	-9	-7	0.1
O=C(C1CCC(Cn2c(=S)[nH]c3ccccc3c2=O)CC1)N1CCN(c2ccccn2)CC1 (stereo unspecified)	-3	36	7.5	-0.4	0.8	17	8	0.6
O=C(c1ccc(C(F)(F)F)cc1)N1CCN(c2ccc(N3CCOCC3)nn2)CC1	2	-3	8.6	.	2.5	-3	0	0.3
S=c1[nH]nc(COc2ccc(Cl)cc2)n1-c1ccc(Cl)cc1	-6	17	-1.6	-1.4	2.0	-5	5	-0.4
Cc1cc(C)c[n+](-c2[nH]c(=O)sc2/C=N/N=C(\N)[S-])c1	-2	-10	-0.7	.	-3.8	0	3	-1.1
C/C(N)=C(/C#N)C(=O)COC(=O)c1cccc(O)c1	5	6	-0.2	1.7	2.4	-14	-26	-2.0
Cc1ccc(C(=O)NN2CC(O)=C(c3nc(-c4cccc([N+](=O)[O-])c4)cs3)C2=N)cc1	2	3	1.7	2.9	2.8	9	-24	0.3
CC1Sc2ccc(S(=O)(=O)CCC(=O)N(C)Cc3ccco3)cc2NC1=O (stereo unspecified)	-1	2	1.5	7.6	1.6	0	-17	0.0
O=S(=O)(c1ccc(N2CCN(Cc3ccccc3)CC2)nc1)N1CCCC1	0	.	.	-2.5	-6.4	0	.	0.4

Quoted at random: 3 entries already listed
SMILES	B2AR ag	T cruzi inh	RanGTP-Impb inh	UCH37 DUB inh	LANA-H2A inh	Beta cell apopt	Calb FLC	Bfl-1 A1 inh
Cc1ccc(C(=O)NN2CC(O)=C(c3nc(-c4cccc([N+](=O)[O-])c4)cs3)C2=N)cc1	2	3	1.7	2.9	2.8	9	-24	0.3
CCCNS(=O)(=O)c1ccc(N2CCCC2=O)c([N+](=O)[O-])c1	-3	-26	5.0	3.6	-1.9	-6	-3	0.4
CCCC(=O)NC(=S)Nc1ccccc1OC	3	9	5.5	3.9	-0.4	-5	21	-0.6

Back to the main list; the 2 compounds before the break are reprinted first.
SMILES	B2AR ag	T cruzi inh	RanGTP-Impb inh	UCH37 DUB inh	LANA-H2A inh	Beta cell apopt	Calb FLC	Bfl-1 A1 inh
CC1Sc2ccc(S(=O)(=O)CCC(=O)N(C)Cc3ccco3)cc2NC1=O (stereo unspecified)	-1	2	1.5	7.6	1.6	0	-17	0.0
O=S(=O)(c1ccc(N2CCN(Cc3ccccc3)CC2)nc1)N1CCCC1	0	.	.	-2.5	-6.4	0	.	0.4
CNS(=O)(=O)c1ccc(C(=O)NCC(=O)NCCc2ccc3c(c2)OCCO3)cc1	4	.	.	1.9	-1.1	-2	.	-0.5
Cc1cccc(NC(=O)C2CC(O)CN2C(=O)Oc2ccccc2)c1 (stereo unspecified)	1	-13	-0.3	-1.7	1.5	2	2	0.3
O=c1ccc(NS(=O)(=O)c2ccccc2)cn1Cc1ccc(Cl)c(Cl)c1	2	-24	6.2	6.6	-3.5	-6	?	0.8
CCOc1cc(C2C3=C(CC(C)(C)CC3=O)N(CCCOC)C3=C2C(=O)CC(C)(C)C3)ccc1O	-3	2	?	2.3	3.5	-10	3	1.0
CC1(C)C(/C=C/C=C/C=C/C=C2\N(CCCCS(=O)(=O)O)c3ccc4ccccc4c3C2(C)C)=[N+](CCCCS(=O)(=O)[O-])c2ccc3ccccc3c21	58*	.	.	3.7	10	11	.	-1.5
S=C(Nc1ccccc1)N(CCN1CCOCC1)Cc1cccc(Cl)c1	-8	-19	-2.6	4.8	-4.8	0	-12	0.3
O=C(Cn1cnc2c(OCc3ccccc3)ncnc21)NCc1ccccc1	-5	.	.	-0.1	0.9	-3	.	0.2
O=C(CCCc1c[nH]c2ccccc12)Nc1ccc(S(=O)(=O)Nc2ncccn2)cc1	0	-15	3.1	4.6	-1.3	-1	-9	0.3
CCOc1ccc(NC(=O)CN2C(=O)CSc3ccc(S(=O)(=O)N4CCOCC4)cc32)cc1	1	5	-6.9	1.0	1.5	-5	-4	2.8
CC(C)CNS(=O)(=O)c1cc2c3c(c1)CCC(=O)N3CCC2	1	6	2.2	-0.4	-9.6	-1	42	1.1
O=C(CN1C(=O)CSc2ccc(S(=O)(=O)N3CCOCC3)cc21)NCCCN1CCc2ccccc2C1	0	0	?	2.5	1.9	8	4	0.5
COC(=O)C1CCN(C(=O)COC(=O)c2ccc(=O)n(Cc3ccccc3)n2)CC1	-3	-8	1.4	6.0	1.0	-4	0	1.0
CC1CCN(S(=O)(=O)c2ccc3ncn(CC(=O)N4CCN(C)CC4)c(=O)c3c2)CC1	1	8	-0.7	2.1	5.1	-4	0	0.4
O=C(COC(=O)c1ccc2c(c1)OCCO2)Nc1ccc(F)cc1F	-1	.	.	2.7	0.6	3	.	-0.6
COCc1ccc(C(=O)N2CCCC(Nc3ccc(F)c(F)c3)C2)s1 (stereo unspecified)	-1	22	0.0	2.0	95*	-10	-3	?
O=C(O)c1cn(Cc2ccccc2)nc1-c1cccnc1	1	-10	-0.2	3.7	-0.1	-2	2	-0.2
COc1ccccc1NC(=O)/C(=C/c1cccs1)NC(=O)c1ccco1	-13	0	1.0	4.7	4.2	0	30	-0.5
Cc1c(/C=N/NC(=O)C2(O)c3ccccc3-c3ccccc32)cnn1C	0	2	-4.4	.	3.0	0	?	-0.6
Cc1cc(N=Nc2ccccc2C(=O)O)c(C)c(C)c1O	8	9	?	25*	-4.4	12	7	-0.7
COc1ccc(N2C(=S)NC3N2C(=S)NC3(C)c2ccccc2)cc1 (stereo unspecified)	0	4	2.4	2.5	-0.2	0	-25	-7.4
O=C(c1cccc(C(F)(F)F)c1)C1CCCN(C(=O)Cn2cncn2)C1 (stereo unspecified)	2	-9	2.4	2.0	1.8	-2	21	0.0
CC1=NN(C(=O)COc2ccccc2)C(O)(c2cccnc2)C1 (stereo unspecified)	-4	-25	-1.2	1.8	7.1	2	-6	0.4
O=C(CN1CCN(c2ccccc2O)CC1)Nc1cc(S(=O)(=O)N2CCCC2)ccc1Cl	5	.	.	1.9	-4.9	6	.	-1.1
CCOCCCNC(=O)c1cn(CC(C)C)c(=O)c2cc(OC)c(OC)cc12	-8	9	2.5	8.4	.	.	-4	.
N=C(N)SCc1nc2ccccn2c1Br	-10	-14	-1.5	0.5	8.5	-11	-4	-0.1
CCSc1cc(N2CCCC2)nc(-c2ccc(Cl)cc2)n1	-9	.	.	-29	-2.5	2	.	0.3
Cc1ccc(S(=O)(=O)N2CCOCC2)cc1NC(=O)C1=NN(c2ccccc2)C(=O)CC1	3	-17	?	2.9	0.2	1	-1	0.9
Cc1cc(C)c(NC(=O)COC(=O)COc2ccc3c(C)cc(=O)oc3c2)c(Cl)c1	5	.	.	-16	1.3	-2	.	0.5
O=c1[nH]nc2n1CCCCC2	1	-5	-1.6	3.9	0.5	-11	-2	1.1
COC(=O)C(C)N(C#N)c1nc(C)nc(C)n1 (stereo unspecified)	0	.	-1.4	1.5	-2.9	3	-7	1.5
COc1ccc(OCCCC(=O)OCC(=O)c2ccc3c(c2)NC(=O)CO3)cc1	4	1	0.8	5.8	-0.8	-14	-1	-0.4
CCOC(=O)CSCc1nc(-c2ccc(Cl)cc2)oc1C	3	-13	-0.1	7.5	4.4	1	0	0.4
COc1ccc(-c2nc3ccccc3nc2-c2ccc(OC)cc2)cc1	6	34	2.6	-168	-5.5	-2	-3	0.1
Cc1cc(C)nc(N2CCCC(C(=O)Nc3cccc(Cl)c3)C2)n1 (stereo unspecified)	0	0	?	5.0	1.9	3	-5	-0.1
Cc1nc2ccc(NC(=O)N3CCOCC3)cc2s1	-6	16	?	-5.0	4.9	-4	13	-0.2
O=C(COc1ccc2c(c1)oc(=O)c1ccccc12)N[C@@H](Cc1ccccc1)C(=O)O	-3	-31	1.2	-289	4.2	-3	-1	-0.1
CC(=O)N[C@@H](C)C(=O)N1CCC(n2nccc2NC(=O)CCCc2ccccc2)CC1	4	-2	-2.2	3.0	-1.5	0	0	0.3
O=[N+]([O-])c1ccc(O)c(NC(=S)Nc2ccccc2)c1	-4	-7	1.3	9.0	-3.3	9	3	-3.0
CC(C)(Oc1ccc(CCNC(=O)c2ccc(Cl)cc2)cc1)C(=O)O	0	-17	0.1	0.6	-6.9&12	3	.	-0.5
COc1ccc(N(CC(=O)N2CCC(C(N)=O)CC2)S(=O)(=O)c2ccccc2)cc1	-3	-13	4.6	-0.4	3.2	-5	11	0.2
COc1ccc(OC)c2[nH]c(=O)c(CCNC(=O)CC(C)C)cc12	0	-13	-3.9	2.1	-1.3	3	2	-0.4

Part of the list above in order of heavy-atom count, rising.
SMILES	B2AR ag	T cruzi inh	RanGTP-Impb inh	UCH37 DUB inh	LANA-H2A inh	Beta cell apopt	Calb FLC	Bfl-1 A1 inh
O=[N+]([O-])c1ccc(O)c(NC(=S)Nc2ccccc2)c1	-4	-7	1.3	9.0	-3.3	9	3	-3.0
CCOC(=O)CSCc1nc(-c2ccc(Cl)cc2)oc1C	3	-13	-0.1	7.5	4.4	1	0	0.4
Cc1cc(C)nc(N2CCCC(C(=O)Nc3cccc(Cl)c3)C2)n1 (stereo unspecified)	0	0	?	5.0	1.9	3	-5	-0.1
CC(C)(Oc1ccc(CCNC(=O)c2ccc(Cl)cc2)cc1)C(=O)O	0	-17	0.1	0.6	-6.9&12	3	.	-0.5
COc1ccc(-c2nc3ccccc3nc2-c2ccc(OC)cc2)cc1	6	34	2.6	-168	-5.5	-2	-3	0.1
COc1ccc(OCCCC(=O)OCC(=O)c2ccc3c(c2)NC(=O)CO3)cc1	4	1	0.8	5.8	-0.8	-14	-1	-0.4
CC(=O)N[C@@H](C)C(=O)N1CCC(n2nccc2NC(=O)CCCc2ccccc2)CC1	4	-2	-2.2	3.0	-1.5	0	0	0.3

Records listed above marked active in LANA-H2A inh.
| structure | B2AR ag | RanGTP-Impb inh | UCH37 DUB inh | LANA-H2A inh |
| --- | --- | --- | --- | --- |
| COCc1ccc(C(=O)N2CCCC(Nc3ccc(F)c(F)c3)C2)s1 (stereo unspecified) | -1 | 0.0 | 2.0 | 95* |
